Marburg entry inh: qHTS for inhibitors of binding or entry into cells for Marburg Virus; Marburg virus pseudotyped entry inhibition, cell reporter; control for the full effect not named in the record; about a third of the inactives were read at about 46 µM; Potency, µM (series often up to 37.8 µM), inactives show at the top dose activity change, negative = inhibition, most hits filed as inhibitors; 1.8% of 300,000 active; AID 540276, 2011; active = well fitted inhibition curve with a large enough effect; inconclusive = small, poorly fitted or top-dose-only effect, or effect the other way; inactive = flat fitted curve, though single readings scatter; tested in HEK293 cells; about a fifth of its hits are not listed in these tables; further: on the % scale 0 is the no-effect control and ±100 the full control effect; luciferase read-out
NS1 function inh: qHTS Assay for Inhibitors of Influenza NS1 Protein Function | 0.4% of 270,000 active | Potency, µM (series often up to 46.1 µM), without a hit: at the top dose activity, positive = more growth | S. cerevisiae slowed by influenza A NS1, growth recovery by OD600 | AID 2326, 2010; active means well fitted rising curve with a large enough effect; inconclusive means small, poorly fitted or top-dose-only effect; inactive means no such curve, though single readings can be large or run the other way; further: nearly all actives have a fitted effect of over 50% in size
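In this qHTS, NS1 from influenza A is expressed in budding yeast, where it slows growth. Cells are switched from glucose to 2% galactose medium (pH 6.0, -URA), treated with compound, and growth recovery is read at OD600.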
Cruzain noTriton: qHTS Assay for Promiscuous and Specific Inhibitors of Cruzain (without detergent); Potency, µM, inactives show max response, negative = inhibition, most hits filed as inhibitors; Cruzipain (Trypanosoma cruzi), P25779; purified cruzain, Z-FR-AMC fluorescence, no detergent; 2.3% of 200,000 active;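 further: plate controls were enzyme without inhibitor for no effect and buffer without enzyme for full effect; nearly all actives have a fitted effect of over 40% in size; top concentration of the series not given in the record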
Target sequence (P25779 123-467 limits assumed): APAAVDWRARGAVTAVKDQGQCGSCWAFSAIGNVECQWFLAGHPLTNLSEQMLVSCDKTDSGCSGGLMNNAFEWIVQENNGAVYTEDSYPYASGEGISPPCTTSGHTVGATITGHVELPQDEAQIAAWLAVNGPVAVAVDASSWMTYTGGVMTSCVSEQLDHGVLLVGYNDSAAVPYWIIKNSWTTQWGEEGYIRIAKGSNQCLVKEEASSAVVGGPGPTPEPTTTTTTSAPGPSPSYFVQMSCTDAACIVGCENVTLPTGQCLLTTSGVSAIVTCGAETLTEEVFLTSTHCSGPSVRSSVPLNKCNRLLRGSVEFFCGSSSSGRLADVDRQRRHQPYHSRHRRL
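Detergent-free condition (0.00005% Triton X-100) in acetate buffer pH 5.5 with DTT. 1.5 nM enzyme and compound were pre-mixed 15 min, then 2 uM Z-FR-AMC substrate added; reaction progress from fluorescence change between first and third reads (60 s).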
LASV entry inh: qHTS for Inhibitors of binding or entry into cells for Lassa Virus; Lassa virus pseudotype entry inhibition, cell reporter; control for the full effect not named in the record; 1.2% of 300,000 active; Potency, µM (series often up to 37.9 µM), inactives show at the top dose activity change, negative = inhibition, most hits filed as inhibitors; active means well fitted inhibition curve with a large enough effect; inconclusive means small, poorly fitted or top-dose-only effect, or effect the other way; inactive means flat fitted curve, though single readings scatter; tested in HEK293 cells; further: on the % scale 0 is the no-effect control and ±100 the full control effect; nearly all actives have a fitted effect of over 50% in size; luciferase read-out
StopGo reporter: High Throughput Screening for Foot and Mouth Disease Virus Antivirals. human cells with a luciferase reporter of 2A StopGo recoding; control for the full effect not named in the record. Potency, µM (highest dose often 57.9 µM), without a hit: top-dose signal change, negative = less light. 1.2% of 410,000 active; active = well fitted falling curve with a large enough effect; inconclusive = small, poorly fitted or top-dose-only effect; inactive = no such curve, though single readings can be large or run the other way; tested in HEK293T cells; further: on the % scale 0 is the no-effect control and ±100 the full control effect; nearly all actives have a fitted effect of over 45% in size; luciferase light after 4 h
SARS PLpro yeast: qHTS of Yeast-based Assay for SARS-CoV PLP | S. cerevisiae expressing SARS-CoV PLpro, growth rescue; control for the full effect not named in the record | Potency, µM (doses to about 32.9 µM), without a hit: at the top dose activity, positive = growth rescue | 0.19% of 330,000 active; active means well fitted rising curve with a large enough effect; inconclusive means small, poorly fitted or top-dose-only effect; inactive means no such curve, though single readings can be large or run the other way; further: 0% is about no effect; nearly all actives have a fitted effect of over 55% in size; growth read by luminescence after 48 h
Cruzain Triton: qHTS Assay for Promiscuous and Specific Inhibitors of Cruzain (with detergent); Cruzipain (Trypanosoma cruzi), P25779; purified cruzain, Z-FR-AMC fluorescence, 0.01% Triton; AID 1478, 2009; 0.43% of 200,000 active; Potency, µM, for the others: max response, negative = inhibition, actives largely listed as inhibitors;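 further: plate controls were neutral wells for no effect and buffer without enzyme for full effect; nearly all actives have a fitted effect of over 40% in size; top concentration of the series not given in the record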
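Steps: dispense cruzain (1.5 nM final) in acetate buffer pH 5.5 with DTT and 0.01% Triton X-100; pin-transfer compounds; incubate 15 min RT; add Z-FR-AMC (2 uM final); read fluorescence every 30 s, using the 60 s intensity change.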
RE007 growth inh: qHTS Assay for Inhibitors of the HIV-1 protein Vpr; S. pombe RE007 Vpr strain, BacTiter-Glo ATP luminescence, 24 h; control for the full effect not named in the record; Potency, µM (titrated, usually from 92.2 µM), for the others: at the top dose activity change, negative = less growth; 0.21% of 360,000 active; active = well fitted falling curve with a large enough effect; inconclusive = small, poorly fitted or top-dose-only effect; inactive = no such curve, though single readings can be large or run the other way;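 further: on the % scale 0 is the no-effect control and ±100 the full control effect; nearly all actives have a fitted effect of over 50% in size; the assay follows cell death caused by Vpr and the record does not say whether a fall means rescue or toxicity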
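Fission yeast strain RE007, carrying one chromosomally integrated HIV-1 vpr copy, was seeded at OD 0.01 in PMG+AL medium with 23 nL pinned compound. After 24 h at 30 °C and 99% humidity, viability was read by BacTiter-Glo luminescence.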
An asterisk follows results filed as active; ? = inconclusive; nt = no result given; & = joins results of further samples; [ ] = another dose, or the depositor's remark. Unless noted, the call rests on the fitted dose curve; in most records, active means well fitted curve in the direction sought with a large enough effect; inconclusive means small, poorly fitted or top-dose-only effect, or another doubt; inactive means no such curve, though single readings can be large; an effect the other way counts as inactive or inconclusive. Potency means the concentration at half of the fitted maximal effect.

SMILES | Marburg entry inh | NS1 function inh | Cruzain noTriton | LASV entry inh | StopGo reporter | SARS PLpro yeast | Cruzain Triton | RE007 growth inh
CCc1ccc(NC(=O)CSc2nc(-c3cccc(OC)c3)nc3c2Cc2c(CO)cnc(C)c2O3)cc1 | nt | nt | 9% | 0%[46.1 µM] | -5% | nt | -1.7% | nt
CSc1ncccc1C(=O)N1CCCC(C(=O)c2cc(F)ccc2F)C1 (stereo not given) | nt | 3% | nt | nt | -21% | 1% | nt | -5%
COC(=O)c1cc(Nc2cc(C)c3c(O)cccc3n2)cc(C(=O)OC)c1 | nt | 10% | nt | nt | -11% | 3% | nt | 1%
Cc1cc(=O)[nH]c(SCC(=O)c2ccc(C(C)C)cc2)n1 | 4% | -11% | 2% | 15% | -9% | -4% | -5.9% | 8%
O=C(CSc1nc2c(oc3ccccc32)c(=O)[nH]1)Nc1cccc(Cl)c1 | ? | nt | 7.9µM* | nt | 37%[activator] | nt | 0.7% | nt
COc1c2ccoc2c(OC(C)=O)c2oc(C)cc(=O)c12 | -10% | -5% | nt | nt | -12% | -5% | nt | -15%
CC(=O)N1CCc2cc(S(=O)(=O)CCC(=O)NCc3ccc4c(c3)OCO4)ccc21 | 18% | -1% | -7% | ? | -8% | 2% | 2.3% | -7%
CC1=C(SCCC#N)S/C(=C2\SC(C)=C(SCCC#N)S2)S1 | -15% | -12% | 25µM* | ? | nt | -19% | -13% | ?
CCc1nc(N[C@H](C(=O)O)C(C)C)c2oc3ccccc3c2n1 | 11% | 3% | nt | ? | 2% | 1% | nt | 6%
O=C(Nc1ccccc1)N(Cc1ccccc1)Cc1ccccc1 | -8% | -14% | -7% | 3% | -24% | 4% | 2.0% | -10%
COCCNC(=O)c1ccc(N2CC3CC(C2)c2cccc(=O)n2C3)c(NC(=O)c2ccc(F)cc2)c1 (stereo not given) | nt | 6% | nt | nt | -13% | 0% | nt | -1%
CCOc1ccc(NC(=O)CN(C)C(=O)c2c(-c3ccccc3Cl)noc2C)cc1OCC | -18% | nt | nt | 14% | -21% | 0% | nt | 6%
CSC1=NCCN1C(=O)c1ccc(S(=O)(=O)N2CCCC2)cc1 | nt | ? | -7% | nt | -21% | -2% | 1.6% | 13%
Oc1cccc(C(=S)N2CCN(Cc3ccccc3)CC2)c1 | 29%[46.1 µM] | -36% | 0% | -5% | 6% | ? | -9.6% | -17%
c1ccc(Cn2nnnc2C(c2cccnc2)N2CCN(C3CCCCC3)CC2)cc1 (stereo not given) | ? | -8% | -14% | -12% | nt | 9% | -2.2% | -6%
CCCCN(C(=O)CSc1nncn1-c1ccccc1OC)c1c(N)n(Cc2ccccc2)c(=O)[nH]c1=O | 0%[46.1 µM] | nt | nt | -13%[46.1 µM] | -1% | 0% | nt | 1%
Cc1ccc(CN2C3CCCC2CC(NC(=S)NCc2ccccc2)C3)cc1 (stereo not given) | ? | -3% | nt | ? | -7% | 2% | nt | -26%
O=c1cc(CNc2cc(C(F)(F)F)cc(C(F)(F)F)c2)nc2sccn12 | ? | -27% | 2% | ? | -47% | -7% | -10% | -18%
COCC1CCN(Cc2cn(C)nc2-c2cccc(Cl)c2)C1 (stereo not given) | ? | 4% | nt | -15% | -9% | 1% | nt | -5%
COc1ccc(OC)c(NC(=O)C2CCCCC2)c1 | 4% | 15% | -14% | 1% | 11% | 7% | 1.9% | 6%
C=CCN1CC[C@@]2(C)c3cc(O)ccc3CC1[C@@H]2C | ? | -1%&0% | 4% | nt | -24% | 0% | -4.2% | -5%
Cc1cc(C(=O)Nc2cnc3ccccc3c2)ccc1[N+](=O)[O-] | ? | nt | nt | ? | 59%[activator] | 0% | nt | -8%
Cc1ccc(OCCNC(=O)c2ccc(NC(=O)CC3SC(N4CCCC4)=NC3=O)cc2)cc1 (stereo not given) | -26% | nt | nt | -1% | -28% | nt | nt | -4%
NC(=O)c1nn2c(C(F)(F)F)cc(-c3ccc(Br)cc3)nc2c1Cl | nt | nt | 20% | 20%[46.1 µM] | 1% | nt | 2.0% | nt
CCN(CC)S(=O)(=O)c1ccc(N2CCOCC2)c(NC(=O)COc2ccccc2C#N)c1 | nt | 1% | nt | nt | -4% | 0% | nt | 15%
CCOC(=O)c1cc(C(=O)NCc2ccc(Cl)cc2Cl)nn1C | 29% | -9% | -12% | ? | -8% | -1% | -5.5% | -5%
CC(c1ccccc1)n1c(S(=O)(=O)O)nc2ccccc21 (stereo not given) | 11% | 7% | nt | 3% | -6% | 0% | nt | 3%
O=[N+]([O-])c1ccc(-c2ncc(-c3ccc(Br)cc3)o2)cc1 | 5%[46.1 µM] | 3% | nt | 17% | 36%[activator] | 0% | nt | 1%
CCOc1ccc(CNC(=O)c2ccc(NC(=O)N3CCSc4ncccc43)cc2)cc1 | nt | nt | 15% | 2%[46.1 µM] | -13% | nt | -10% | nt
COC(=O)c1ccc(Cl)c(NC(=O)CN2CCN(C)CC2)c1 | -2% | 5% | 1% | 9% | -14% | 2% | -0.3% | -19%
CCC(C)NC(=O)CCCc1ccccc1 (stereo not given) | 26% | 2% | 2% | 13% | 31%[activator] | -2% | -0.4% | -1%
O=C(OCC(=O)N1CCCC1)c1ccc(NS(=O)(=O)c2cccs2)cc1O | 13%[46.1 µM] | nt | nt | 10% | 28% | -3% | nt | -5%
CC(NC(=O)N1CCOCC1)c1ccccc1 (stereo not given) | nt | 3% | nt | nt | 2% | 2% | nt | 29%
COCCCNc1nc2c(-c3ccccc3)nnn2c2ccccc12 | 2%[46.1 µM] | nt | 3% | 1%[46.1 µM] | ? | nt | 0.3% | nt
COc1cc(OC)cc(N2C(=O)N(Cc3ccc(C(C)(C)C)cc3)c3ccccc3S2(=O)=O)c1 | nt | nt | 4µM* | -25%[46.1 µM] | 0% | nt | 0.7% | nt
CCCc1[nH]nc2c1C(c1cn[nH]c1-c1ccc(F)cc1)C(C#N)=C(N)O2 (stereo not given) | -15% | 0% | 3% | ? | -13% | 0% | -3.8% | -6%
Cc1nc(NC(=O)C2CC2)sc1C(=O)NC1CCCCC1 | 12%[46.1 µM] | -2% | nt | -5% | 15% | 0% | nt | 9%
COc1ccccc1N(CC(=O)N1CCC(C(N)=O)CC1)S(=O)(=O)c1ccccc1 | 18%[46.1 µM] | 6% | nt | 1% | -2% | -6% | nt | 24%
O=C(Cc1ccccc1)Nc1ccc(Br)c(Cl)c1 | -22% | 2% | 5% | 11% | -2% | -2% | -6.5% | 4%
CC(=O)NC(=S)Nc1ccc(NC(=S)NC(=O)c2cccs2)cc1 | nt | -1% | nt | nt | 0% | 2% | nt | 4%
CC(C)C[C@H](CO)Nc1nc(Nc2cccc(Cl)c2)c2ncn(C(C)C)c2n1 | nt | -2% | nt | nt | 24% | -4% | nt | -2%
OC1(c2ccccc2)CN(c2ccccc2)C2=[N+]1CCS2 (stereo not given) | -18% | 27% | 7% | -5% | ? | 10% | -2.5% | 19%
Cc1ccc(S(=O)(=O)N2CCCc3cc(NC(=O)c4ccc(C(C)(C)C)cc4)ccc32)cc1 | nt | nt | 3.2µM* | 4%[46.1 µM] | 4% | nt | 4.3% | nt
O=C(O)CCCC(=O)N1CCc2cc(S(=O)(=O)NCc3ccccc3)ccc21 | 13%&13%[46.1 µM] | nt | 7% | 1%[46.1 µM] | 16%&2% | -1% | -3.4% | -3%
CC(C)CNC(=O)c1cccc(NC(=O)c2ccc3c(c2)C(=O)N(C)C3=O)c1 | nt | -5% | nt | nt | 3% | 6% | nt | -3%
CCC(=O)N1N=C2C3CCN(CC3)C2C1c1ccccc1 (stereo not given) | -6% | 18% | -5% | 25% | nt | -1% | 3.2% | -9%
O=C(CSc1nnc(-c2ccc(F)cc2)c2ccccc12)Nc1cccc(Cl)c1 | ? | 18% | 16µM* | -4% | -26% | -6% | -3.8% | 4%
Cn1c2ccccc2c2cc(/C=C(\NC(=O)c3ccccc3)C(=O)NCC(=O)O)ccc21 | nt | 5% | nt | nt | -19% | 7% | nt | 1%
CCCc1cc(=O)oc2cc(C)c3c(-c4ccccc4)coc3c12 | ? | nt | ? | ? | -27% | nt | -9.0% | nt
CCOC(=O)c1c(C)n(C)c2c(C)cc(O)c(OC(=O)CC)c12 | 8% | 9% | ? | -3% | 1% | 1% | 1.8% | 5%
Fc1cccc(-c2nnn3c2nc(NC2CCCCC2)c2ccccc23)c1 | ? | nt | 6% | 24%[46.1 µM] | -16% | nt | -2.3% | nt
NS(=O)(=O)c1ccc(CCNC(=O)c2ccc3nc(CCc4ccccc4)oc3c2)cc1 | nt | nt | -2% | -7%[46.1 µM] | 10% | nt | -6.7% | nt
Cc1cc(=O)n(C(C)C(=O)N2CCCc3ccccc32)c2c1c(C)nn2-c1ccccc1 (stereo not given) | nt | nt | ? | ? | 7% | nt | 3.9% | nt
O=C(CSc1ccccc1)NC1CCCCCCC1 | nt | -14% | nt | nt | 35%[activator] | -2% | nt | 24%
CC(=O)Nc1ccc2c(CN3C(=O)NC(C)(c4ccc(C)cc4)C3=O)cc(=O)oc2c1 (stereo not given) | -20%[46.1 µM] | nt | nt | ? | -9% | 1% | nt | -9%
CC1=C(C(=O)OCc2ccccc2)C(c2ccc([N+](=O)[O-])cc2)NC(=O)N1C (stereo not given) | nt | -1% | nt | nt | ? | 2% | nt | -14%
COc1ccccc1NC(=O)CCc1nc2sc3c(c2c(=O)[nH]1)CCCC3 | -11%[46.1 µM] | nt | nt | -2% | -17% | -2% | nt | -15%
CN(C)N1C(N)=C(C#N)C(c2cccs2)C2=C1CC(C)(C)CC2=O (stereo not given) | 0%[46.1 µM] | nt | nt | -9% | -8% | -4% | nt | 17%
CCc1cccc(NC(=O)Cn2nc(CC)n3c(cc4cc(C)ccc43)c2=O)c1 | 5%[46.1 µM] | nt | 0% | 21%[46.1 µM] | -6% | nt | -4.4% | nt
O=C(NCc1cccs1)c1ccccc1[N+](=O)[O-] | 23% | 16% | -6% | 4% | -18% | 12% | 1.4% | -10%
